# NPYLR7 ag = activates Aedes aegypti NPYLR7 receptor; HEK293T NPYLR7/Galpha15, GCaMP6s calcium fluorescence; activation, % at 10 µM; hit rate 0.15% among 270,000; in the data active = activation above about 40%;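 also: 0% = vehicle and 100% = reference agonist at the receptor; some compounds past the cut are filed as inactive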
# NPYLR7 ag max-min = second read-out of NPYLR7 ag, no call of its own (marks repeat the call); activation, %; measured here: Max-Min RFU normalised activation; some inactives read as strong as hits;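 span of the calcium signal over five minutes; 0% = vehicle and 100% = native peptide agonist; compound fluorescence can raise it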
# Numbers without * were called inactive. Not all compounds are listed, so the mix of outcomes need not match the whole.
Structure | NPYLR7 ag | NPYLR7 ag max-min
O=S(=O)(NCc1ccccc1)NC1CCCN(c2ncccn2)C1 (stereo not drawn) | 6 | 3
COCCNC(=O)C(NC(=O)c1ccc(OC)cc1)C1CCN(C(=O)Nc2cccc(Cl)c2)CC1 (stereo not drawn) | 7 | 9
COc1ccc(C)cc1CN(C)Cn1ncc(Cl)c(Cl)c1=O | -2 | -2
COc1cccc(C(=O)N2CCN(C(C(=O)NCc3ccccn3)C3CCCC3)CC2)c1 (stereo not drawn) | -8 | -1
CCOC(=O)c1cnc2c(OC)ccc(OC)c2c1N1CCSCC1 | 8 | 3
Cc1nc2c(c(=O)[nH]1)CCN(C(=O)c1cc(-n3cccn3)ccc1Cl)C2 | 19 | 10
O=C(CCC1CCN(C(=O)c2cn[nH]c2C2CCCCC2)CC1)NC1CC1 | 5 | 0
CCCc1cc(=O)[nH]c(SCC(=O)CSc2nc(CCC)cc(=O)[nH]2)n1 | -1 | -3
CC1(C)O[C@@H]2C[C@@](OCc3ccccc3F)(C(=O)NCc3ccco3)CC(OCc3cccc(F)c3F)[C@@H]2O1 (stereo partly drawn) | 6 | 8
CC(C)Cc1cc(C(=O)NC2CC(=O)N(C3CCCCCC3)C2)nc(=O)[nH]1 (stereo not drawn) | 11 | 8
COCCN(CCOC)C(=O)CSc1nc2ccccc2c(=O)n1C1CCCC1 | -5 | -7
Cc1ccccc1-c1onc(C)c1C(=O)NCc1cccc(F)c1F | 6 | 14

# The final two records of the section before open the next one:
Structure | NPYLR7 ag | NPYLR7 ag max-min
COCCN(CCOC)C(=O)CSc1nc2ccccc2c(=O)n1C1CCCC1 | -5 | -7
Cc1ccccc1-c1onc(C)c1C(=O)NCc1cccc(F)c1F | 6 | 14
c1ccc(-c2cn[nH]c2C2CCN(Cc3ccccn3)CC2)cc1 | 1 | 1
COc1ccc(S(=O)(=O)N2CCN(C(=O)C3(c4ccc(F)cc4)CC3)CC2)cc1 | 13 | 11
N#CC(=C(O)CSc1cccc[n+]1[O-])c1nc2ccccc2s1 | 1 | -2
Cc1cc(-n2c(C)cc(C(=O)CSc3[nH]c(=O)cc(C(F)(F)F)c3C#N)c2C)no1 | 9 | 13
COCCNc1cc(C)nc2c(-c3ccccc3)cnn12 | -4 | -8
O=C(c1ccc(CSc2ccc3ccccc3n2)cc1)N1CCCC1C1CCCCC1 (stereo not drawn) | 5 | 2
C/C(=N\Nc1nc(-c2ccccc2)c(C)s1)c1ccccc1O | -2 | -2
Cc1nc2nc[nH]c2cc1Br | 11 | 8
CCc1nc2c(OCc3ccccc3)cccn2c1N(C)C(=O)C(C)C | -6 | 0
N#CCc1c(C#N)c(N)nc(N2CCN(CCO)CC2)c1C#N | 7 | 7
Cn1cnnc1CCNC(=O)CC1C(=O)NCCN1Cc1cccc(F)c1 (stereo not drawn) | 11 | 3
N#CC1=C(SCC(N)=O)NC(=O)C(C#N)C12CCCCC2 (stereo not drawn) | 5 | 6
Cc1ccc(Cl)cc1Nc1nc(C(=O)N(CCC(=O)O)Cc2ccco2)cs1 | 24 | 11
Cc1ccc(OCC(=O)Oc2coc(CSc3ncccn3)cc2=O)cc1 | -14 | -12
CSCCC(=O)N1CCCC(C(=O)Nc2ccc(-c3cccc(F)c3)cc2)C1 (stereo not drawn) | 12 | 7
Cc1cc(C)c(S(=O)(=O)NNc2c(F)c(F)c(F)c(F)c2F)c(C)c1 | 3 | 0
CN1CCC(CN(CCc2ccccc2)Cc2ccccn2)CC1 | 11 | 1
C=CCc1cc(Cl)ccc1OCCOCCC(C(=O)OCC)C(=O)OCC | 1 | 0
CC1CN(c2cc(Oc3ccc(F)cc3Cl)ncn2)CCN1C(=O)CCc1ccccc1 (stereo not drawn) | 8 | 5
O=C(COc1ccccc1)Nc1ncc(N=Nc2cccc(C(F)(F)F)c2)s1 | 0 | -4
Cc1oc2c(F)c(F)c(F)c(F)c2c1C(=O)NC1CCCCCC1 | -9 | -14
Cc1cc(C)cc(NC(=O)COc2coc(CN3CCc4ccccc43)cc2=O)c1 | 0 | -3
O=[N+]([O-])c1ccc(CSc2nnc(C3CC3)n2C2CC2)cc1 | -1 | 5
Cc1ccccc1COc1cn(CC(=O)NCCc2ccccc2)c(CO)cc1=O | 9 | 8
COc1ccc(Nc2nc(N3CCCCC3)nc3[nH]ncc23)cc1 | 1 | 0
Cc1nc(C(NC(=O)Nc2ncc(C)s2)c2ccccc2F)no1 (stereo not drawn) | 0 | 16
CCOC(=O)c1c(NC(=O)c2ccccc2F)sc(C(=O)Nc2ccccc2F)c1C | -8 | -4
CCCC1C(=O)CC(C(C)C)C(C#N)(C#N)C1(C#N)C#N (stereo not drawn) | 13 | 11
COc1cn(CC(=O)N2CCCC2)c(CO)cc1=O | 4 | 3
COCC1(C(=O)N2CCC(O)(c3ccc(F)cc3)CC2)CCC1 | 8 | 4
CSc1ncc(CN2CCCC(CNS(=O)(=O)c3cccc4cccnc34)C2)cn1 (stereo not drawn) | 8 | -4
Cc1noc(C)c1COC(=O)C(O)c1ccc(Br)cc1 (stereo not drawn) | -1 | -2
COc1ccc(/C=C2\C(=O)N(c3ccc(Cl)c(C(=O)O)c3)N=C2C)cc1Br | -8 | -19
CC1CCN(S(=O)(=O)c2ccc(-c3nc(C#N)c(NCc4ccccc4)o3)cc2)CC1 | 0 | 10
Nc1cccc(OCc2cccnc2)c1 | 2 | 1
CN=C1S/C(=C\c2cn(CC(=O)O)c3ccccc23)C(=O)N1C | -4 | -9

# Record cards, as listed above.
# `CN=C1S/C(=C\c2cn(CC(=O)O)c3ccccc23)C(=O)N1C` as listed: NPYLR7 ag = -4; NPYLR7 ag max-min = -9
# `Cc1cc(C)c(S(=O)(=O)NNc2c(F)c(F)c(F)c(F)c2F)c(C)c1` as listed: NPYLR7 ag = 3; NPYLR7 ag max-min = 0

# (next part)
Structure | NPYLR7 ag | NPYLR7 ag max-min
Nc1nn(C(=O)Cn2cccc(C(F)(F)F)c2=O)c2ccccc12 | 3 | 3
Cc1c(-c2ccccc2F)[nH]c2ccc(CNC3CCOCC3)cc12 | 4 | 0
O=C(c1cn[nH]n1)N1CC(Oc2cccc(F)c2)C1 | 3 | 1
CCOC(=O)C1=C(C)NC2=C(C(=O)CC(c3ccccc3)C2)C1c1ccccc1Cl (stereo not drawn) | 5 | 2
O=C(c1cccs1)N1CCC(C(=O)N2CCN(C(=O)c3cccs3)CC2)CC1 | 9 | 6
CN(C)C(=O)c1c(NC(=O)c2ccco2)sc2c1CCCCC2 | 0 | -3
CCN(CC)CCn1c2c(c(SCC(=O)Nc3nccs3)nc1=O)CCC2 | 0 | -2
Cc1ccc2[nH]c3c(c2c1)CCCC3N1C(=O)c2c(F)ccc(F)c2C1=O (stereo not drawn) | -7 | -12
O=C1c2ccccc2C(=O)N1c1ccc(S(=O)(=O)Nc2ccc(F)cc2)cc1 | -2 | -4
Cc1nn(C)c(C)c1C(C)NC(=O)c1cccc(Cn2cccn2)c1 (stereo not drawn) | -1 | 1
Cc1ccccc1NC(=O)N1CCN(C(=O)c2cc3ccsc3n2Cc2ccc(F)cc2)CC1C (stereo not drawn) | -3 | 3
O=C(c1cn(CCCc2ccccc2)nn1)N1CCC(C(O)c2cccs2)CC1 (stereo not drawn) | 14 | 7
CCC(CO)N(Cc1ccsc1)Cc1ccc2c(c1)CCO2 (stereo not drawn) | -1 | -6
COC(=O)CCC(=O)Nc1cccc(-c2cccc(-c3ccc(OC)cc3)n2)c1 | 5 | 1
Cc1cnc(Cn2cnc(-c3ccccc3)c2-c2cc(C)[nH]n2)cn1 | -1 | -3
Nc1nc(CSc2nnc(NC3CC3)s2)nc(Nc2ccccc2)n1 | 10 | 14
CCOC(=O)c1cnc(-c2ccc(OC)c(OC)c2)nc1N(C)Cc1cc(OC)c(OC)c(OC)c1 | 18 | 24
CCc1cccc2c(C(CC(=O)NC3CCN(Cc4ccccc4)CC3)c3ccc4c(c3)OCO4)c[nH]c12 (stereo not drawn) | -1 | 6
Cc1cccc(N2CCN(CC(=O)NCC(F)(F)F)CC2C)c1 (stereo not drawn) | -16 | -15
O=C(Cc1ccccc1)N1CCN(c2ncnc3c2nnn3-c2ccccc2)CC1 | -10 | -19
CC(C)Cn1nccc1NC(=O)c1ccc(F)cc1Cl | 2 | 0
CCC(=O)C1=C(c2ccc(Cl)cc2)N(C(=O)CC)n2c(C)nnc2S1 | 11 | 8
COCCN(CC(=O)N(Cc1ccccc1)Cc1ccc(C)o1)C(=O)Nc1ccc(C)cc1 | 3 | 15
Cc1cc(C)nc(N=C(N)Nc2cc(Cl)ccc2Cl)n1 | -4 | -4
COC(=O)CNC(=O)c1ccc(NC(=O)C23CC4CC(CC(NC(C)=O)(C4)C2)C3)cc1 | 0 | 24
Cn1c(=S)[nH]c2cc(C(=O)Nc3ccccc3OC(F)F)ccc2c1=O | 4 | 9
COc1cccc(C2Nc3ccccc3C(=O)N2Cc2ccco2)c1OC (stereo not drawn) | 1 | 15
Nc1nc(N)c(N=O)c(OCC2CCCCC2)n1 | 4 | -3
COC(=O)CCCC(=O)N1CCN(Cc2cc(=O)c(OCc3cccc(F)c3)co2)CC1 | 1 | 12
Cc1ccc(N2N3C(=O)OC4(C)CCC(C2(C)C)C34C)cc1 (stereo not drawn) | -4 | -8
CNC(=O)[C@H]1CN(C(=O)NC2CCCC2)[C@]2(C)C(=O)N(CC(=O)N(C)C)c3ccccc3[C@H]12 | 2 | 10
CC(=O)N(c1ccc(C)c(C)c1)c1nc(CSc2nncn2C)cs1 | 0 | 17
Cc1ccc(S(=O)(=O)N2CCN(c3ccc(-c4cccnc4)nn3)CC2)s1 | 1 | 11
O=C(c1cccc(C(F)(F)F)c1)N1CC(=O)N2CCc3c(F)cccc3C2C1 (stereo not drawn) | 2 | 3
COc1ccccc1CCNC(=O)COc1ccc(C)nc1[N+](=O)[O-] | 11 | 8
COc1ccc(-c2noc(COc3cc(C(F)(F)F)cc(C(F)(F)F)c3)n2)c(OC)c1 | 0 | 4
Cc1ccnc(N2CCN(C(=O)c3ccccc3C3CCNC3)CC2)c1 (stereo not drawn) | -3 | -4
O=C(CNc1ccc(F)c(Cl)c1)Nc1cccc(Cl)c1 | -2 | -2
C=CCOc1c(OC)ccc2c1CN(CC1CC1)C(=O)CCN2C(=O)C1CCC1 | -2 | 4
Cc1ccccc1OCc1nc(CN(CCN2CCOCC2)C(=O)c2cccs2)cs1 | 0 | 0
CCOc1cnn(C)c(=O)c1Nc1cccc(C(=O)N2CCCCC2)c1 | 5 | 15
Cc1cc(C)c(C)c(S(=O)(=O)N2CC3(C)CC2CC(C)(C)C3)c1C (stereo not drawn) | -1 | -1
N#Cc1ccc(OCc2nc(-c3ccc(Br)o3)no2)cc1 | -1 | -3
O=c1nc2n(c3ccccc13)CCC2=CO | 6 | 6
O=C(O)c1ccc(C2CCN(C(=O)Cc3cccnc3)C2)cc1 (stereo not drawn) | 6 | 5
NC1(Cc2ccc(Cl)cc2)CCN(c2ncnc3[nH]ccc23)CC1 | 3 | -6
O=S(=O)(Nc1cccc(F)c1)c1c(F)cc(F)cc1Br | -2 | -2
Cc1cc(NCc2ccc(N3CCCCC3)cc2)n2ncnc2n1 | 18 | 21

# Five records picked at random from the list so far, as already listed:
Structure | NPYLR7 ag | NPYLR7 ag max-min
Cc1cc(NCc2ccc(N3CCCCC3)cc2)n2ncnc2n1 | 18 | 21
C=CCOc1c(OC)ccc2c1CN(CC1CC1)C(=O)CCN2C(=O)C1CCC1 | -2 | 4
NC1(Cc2ccc(Cl)cc2)CCN(c2ncnc3[nH]ccc23)CC1 | 3 | -6
N#Cc1ccc(OCc2nc(-c3ccc(Br)o3)no2)cc1 | -1 | -3
O=C(CNc1ccc(F)c(Cl)c1)Nc1cccc(Cl)c1 | -2 | -2

# (continued)
Structure | NPYLR7 ag | NPYLR7 ag max-min
O=C(CCCc1cn(S(=O)(=O)c2cccs2)c2ccccc12)NCCCn1cccn1 | -10 | -14
O=C(CCC1CCN(Cc2ccc3c(c2)Cc2ccccc2-3)CC1)NCC1CCCO1 (stereo not drawn) | -2 | -5
COc1ccc(OCc2cc(C(=O)N(C)Cc3cc(C4CC4)n[nH]3)no2)c(Cl)c1 | 5 | 1
COC(=O)[C@@H]1C[C@@H](NC(=O)[C@@H]2CCCO2)CN1C | 6 | 3
Cc1ccc(C)c(C(=O)N2CCCC(CCC(=O)NC3CC3)C2)c1 (stereo not drawn) | 10 | 3
CN(C)c1nc(N)nc(COc2cccc3c2CCC3=O)n1 | 4 | 2
CCCCOc1ccc(C(=O)N2CCC[C@@H]2C(=O)NC2CCCC[C@H]2NC(=O)c2ccc(F)cc2)cc1 (stereo partly drawn) | 19 | 21
CCOc1ccc(-c2ccnc(N3CCN(C(=O)c4ccccc4Cl)CC3)n2)cc1 | 7 | 3
COc1ccc(C2CCCN2S(=O)(=O)c2cccc(C(C)=O)c2)c(OC)c1 (stereo not drawn) | 1 | -1
COCC(=O)Nc1nn(C)c2c1CC(C)C(=O)N2 (stereo not drawn) | -15 | -22
Cc1nc(N)n(C(=O)c2cccc3ccccc23)n1 | -6 | -9
Cn1cnnc1Sc1ccc(CN(Cc2cccnc2)C2CCCCCC2)o1 | -3 | -5
CCCNC(=S)N1CCc2cc(OC)c(OC)cc2C1CNC(=O)c1cccc(Cl)c1 (stereo not drawn) | 3 | 10
CCCCN(Cc1cccn1C)C(=O)CN(CCCOCC)C(=O)c1cccc(Cl)c1 | -2 | -2
CN1CCN(C(CNC(=O)c2ccccc2)c2ccc3c(c2)CCN3C)CC1 (stereo not drawn) | 6 | 2
CCCC1CCC(c2ccc(-c3noc(-c4ccc([N+](=O)[O-])cc4)n3)cc2)CC1 (stereo not drawn) | -12 | -14
Cc1nc2c(c(=O)n1C)CCN(Cc1cn[nH]c1-c1ccccc1)CC2 | -8 | -17
CCc1ccc(CC)c(C(=O)Cn2cnc3sc4c(c3c2=O)CCC4)c1 | 1 | 11
O=C(Nc1ccccc1Br)N1CCc2nc(Cc3cccc(F)c3)nc(N3CCOCC3)c2C1 | -1 | 7
COC(=O)c1ccc(COCC2=CC(C)(C)COc3ccc(OC)cc32)cc1 | 5 | 14
CC1CCCN(c2nc3c(c(=O)[nH]c(=O)n3C)n2CCSc2nc3ccccc3o2)C1 (stereo not drawn) | 0 | 42

# Compound activity (PubChem)
